PD-1 reversal: activators reversing PD-1 mediated T-cell inhibition; primary human CD4 T cells, PD-L1 beads, CellTiter-Glo 96 h; activation, % (test concentration not listed); 29,000 tested, under 10 active;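 active = replicate mean of 50% or more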;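 also: 0% = median vehicle wells and 100% = positive control; 100 nL library stock added to about 50 µL; numbers are from one replicate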
MITF inhib: blocks MITF activity; inhibition, % (concentration not given with the values); AID 2240; TRPM1 promoter luciferase, luminescence, 24 h; 37,000 tested, 0.28% active;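 active = most replicates at 85% or more, or half of them and the mean; inconclusive = half reach 85% but not the mean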;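 also: human melanocyte line stably carrying TRPM1 promoter luciferase reporter; 0% = vehicle wells and 100% = a positive control; the first replicate is given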
Hedgehog inh: blocks Sonic Hedgehog signaling; Shh-LIGHT2 Gli-luciferase reporter, 30 h; inhibition, % (concentration not given with the values); 22,000 tested, 2.1% active;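 active = replicate mean of 65% or more; inconclusive = mean lower but half the replicates past it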;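 also: pathway switched on by Shh-conditioned medium diluted 1 in 25 in low serum; 100 nL library stock added to about 40 µL; 0% = median of neutral wells and 100% = positive control level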
YB-1 expression: YB-1 expression inhibition; delta delta Cp (YB-1 minus CDIP) (test concentration not listed); 30,000 tested, 0.37% active; U2OS, qRT-PCR YB-1 vs CDIP delta delta Cp, 16 h; stronger effect = higher value; zero = DMSO, each unit about twofold;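 active = delta delta Cp rounded down to an integer at or above 3, about 3 SD of DMSO wells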;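 also: higher means less YB-1 transcript or more CDIP transcript relative to DMSO; stock transfer was 100 nL into about 100 µL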
Starred values were filed as active, the others as inactive; ? = inconclusive; . = no result given. These rows are one share of the data; the hit share may differ from the screen's.

mol,Hedgehog inh,MITF inhib,YB-1 expression,PD-1 reversal
C[C@@H]1CN([C@H](C)CO)C(=O)c2cccc(NS(C)(=O)=O)c2O[C@@H]1CN(C)C,-21,-4,-0.19,2.5
CSc1ccc(/C=N/n2nnnc2Nc2ccccc2)cc1,44,4,-0.26,-2.4
C=C(C(=O)O)[C@@H]1CC[C@@]2(C)CC(=O)C=C(C)C2C1 (some centres undefined),14,-2,-0.48,0.6
COc1ccc(NC(=O)N(C)C[C@@H]2OCCCC[C@@H](C)Oc3ccc(NC(=O)NC4CCCCC4)cc3C(=O)N([C@H](C)CO)C[C@@H]2C)cc1,-11,-7,-0.31,0.8
C[C@H]1CN([C@@H](C)CO)C(=O)Cc2cc(NC(=O)C3CC3)ccc2O[C@H]1CN(C)C(=O)Nc1cccc2ccccc12,-8,7,-0.57,-0.2
COc1ccccc1CC(=O)Nc1ccc(-c2nc3ccccc3[nH]2)cc1,.,72,-0.0036,-5.7
COC(=O)C1(Cc2ccc(O)cc2)OC(=O)C(OC)=C1c1ccc(O)cc1 (centres undefined),-7,0,4.4*,-0.5
C[C@@H]1CN([C@@H](C)CO)C(=O)c2cccc(NS(=O)(=O)c3ccccc3)c2O[C@@H]1CN(C)S(=O)(=O)c1cn(C)cn1,21,-7,0.12,.
Cc1cc(C(=O)Nc2cccc3c2O[C@@H](CN(C)C(=O)Nc2c(C)noc2C)[C@@H](C)CN([C@H](C)CO)C3=O)n(C)n1,9,4,-0.24,0.8
C[C@@H]1CN([C@H](C)CO)C(=O)Cc2cc(NC(=O)CCN3CCOCC3)ccc2O[C@H]1CN(C)C(=O)NC1CCCCC1,-10,-5,0.25,0.8
COc1ccccc1N(CC(=O)N(C)C)S(=O)(=O)c1ccc(C)cc1,.,-13,.,0.8
C[C@@H]1CN([C@H](C)CO)C(=O)c2cccc(NC(=O)NC3CCCCC3)c2O[C@@H]1CN(C)S(C)(=O)=O,-24,-9,-0.53,1.9

Next structures follow.
mol,Hedgehog inh,MITF inhib,YB-1 expression,PD-1 reversal
C[C@H]1CN([C@@H](C)CO)C(=O)c2cccc(NC(=O)C3CC3)c2O[C@H]1CN(C)Cc1ccc(C(=O)O)cc1,-7,7,-0.62,0.8
C[C@@H]1CN([C@@H](C)CO)C(=O)c2cc(NS(=O)(=O)c3cn(C)cn3)ccc2O[C@@H]1CN(C)Cc1ccc(-c2ccccc2)cc1,2,-2,0.29,0.8
Cc1ccc(C)c(NC(=O)CC2C(=O)N(c3ccccc3)C(=S)N2Cc2ccco2)c1 (centres undefined),.,5,.,-2.9
C[C@@H]1CN([C@@H](C)CO)C(=O)c2cccc(NC(=O)c3ccncc3)c2O[C@H]1CN(C)Cc1ccc(Cl)c(Cl)c1,41,-4,0.027,.
C[C@H]1CN([C@@H](C)CO)C(=O)c2cc(NC(=O)C3CCCCC3)ccc2O[C@H]1CN(C)Cc1ccc(C(=O)Nc2ccccc2N)cc1,.,28,0.11,-3.5
Cc1noc(C)c1S(=O)(=O)N(C)C[C@H]1OCCCC[C@@H](C)Oc2ccc(NC(=O)Nc3ccccc3)cc2C(=O)N([C@H](C)CO)C[C@@H]1C,-5,-1,0.2,0.5
CC(Sc1nc(N)cc(N)n1)C(=O)Nc1ccc(Cl)cc1 (centres undefined),.,-27,.,-1.2
C[C@H]1CN([C@@H](C)CO)C(=O)Cc2cc(NS(=O)(=O)c3ccc(Cl)cc3)ccc2O[C@H]1CN(C)Cc1ccncc1,-6,1,-0.22,0.1
CC(C)NC(=O)N(C)C[C@H]1Oc2c(NS(=O)(=O)c3ccc(Cl)cc3)cccc2C(=O)N([C@H](C)CO)C[C@H]1C,-16,0,0.92,1.3
COc1ccc(NC(=O)N(C)C[C@@H]2Oc3ccc(NS(=O)(=O)c4ccc(Cl)cc4)cc3CC(=O)N([C@H](C)CO)C[C@H]2C)cc1,-9,-8,-0.22,.
C[C@@H]1CN([C@@H](C)CO)C(=O)c2cccc(N(C)C)c2O[C@H]1CN(C)Cc1ccc(-c2ccccc2)cc1,42,11,-0.69,-5.4
O=C(Nc1ccccc1)C1CC(=O)n2ncnc2N1 (centres undefined),-25,-1,-0.52,0.7

Carrying on.
mol,Hedgehog inh,MITF inhib,YB-1 expression,PD-1 reversal
C[C@@H]1CN([C@@H](C)CO)C(=O)c2cccc(NS(=O)(=O)c3ccc(Cl)cc3)c2O[C@@H]1CN(C)CC1CC1,-15,-10,-0.62,0.9
C[C@@H]1CN([C@@H](C)CO)C(=O)c2cc(NC(=O)CCC(F)(F)F)ccc2O[C@@H]1CN(C)C(=O)Nc1ccc(C(F)(F)F)cc1,-22,-12,0.092,.
C[C@@H]1CN([C@@H](C)CO)C(=O)c2cc(NC(=O)Nc3ccc(C(F)(F)F)cc3)ccc2O[C@@H]1CN(C)Cc1ccc(C(=O)Nc2ccccc2N)cc1,.,-21,0.43,-0.4
C[C@H]1CN([C@@H](C)CO)C(=O)Cc2cc(NC(=O)CCN3CCOCC3)ccc2O[C@H]1CN(C)S(=O)(=O)c1ccc(Cl)cc1,5,11,0.29,0.1
CCC[C@@H]1C[C@@H](C(=O)N[C@H]([C@H]2O[C@H](SC)[C@H](O)[C@@H](O)[C@H]2O)[C@H](C)O)N(C)C1,-36,1,-0.18,.
O=C(CSc1nccc(=O)[nH]1)N1CCN(c2ccccc2)CC1,.,-4,.,2.6
CC1=C(C#N)C(C(F)(F)F)(C(F)(F)F)N=C(Cc2ccccc2)N1,25,27,-0.42,-1.0
C[C@H]1CN([C@@H](C)CO)C(=O)Cc2cc(NC(=O)NC3CCCCC3)ccc2O[C@@H]1CN(C)S(=O)(=O)c1ccc(F)cc1,21,4,0.19,.
Cc1sc2ncn(CC(=O)NCc3ccco3)c(=O)c2c1C,.,2,.,-2.7
C[C@@H]1CN([C@@H](C)CO)C(=O)c2cc(NC(=O)Cc3cn(C)c4ccccc34)ccc2O[C@H]1CN(C)Cc1ccc(Oc2ccccc2)cc1,-22,15,0.35,.
C[C@@H]1CN([C@H](C)CO)C(=O)Cc2cc(NC(=O)Nc3ccc4c(c3)OCO4)ccc2O[C@@H]1CN(C)Cc1ccc(Cl)c(Cl)c1,-70,33,-0.28,0.1
C[C@H](CO)N1C[C@H](C)[C@@H](CN(C)S(=O)(=O)c2cccs2)Oc2c(NC(=O)C3CCCCC3)cccc2C1=O,-12,-1,0.088,1.8

Looked up by structure from the list above:
mol,Hedgehog inh,MITF inhib,YB-1 expression,PD-1 reversal
C[C@H](CO)N1C[C@H](C)[C@@H](CN(C)S(=O)(=O)c2cccs2)Oc2c(NC(=O)C3CCCCC3)cccc2C1=O,-12,-1,0.088,1.8
C[C@@H]1CN([C@@H](C)CO)C(=O)c2cc(NC(=O)CCC(F)(F)F)ccc2O[C@@H]1CN(C)C(=O)Nc1ccc(C(F)(F)F)cc1,-22,-12,0.092,.
C[C@H]1CN([C@@H](C)CO)C(=O)Cc2cc(NC(=O)CCN3CCOCC3)ccc2O[C@H]1CN(C)S(=O)(=O)c1ccc(Cl)cc1,5,11,0.29,0.1
Cc1sc2ncn(CC(=O)NCc3ccco3)c(=O)c2c1C,.,2,.,-2.7
C[C@@H]1CN([C@@H](C)CO)C(=O)c2cc(NC(=O)Nc3ccc(C(F)(F)F)cc3)ccc2O[C@@H]1CN(C)Cc1ccc(C(=O)Nc2ccccc2N)cc1,.,-21,0.43,-0.4

(next part)
mol,Hedgehog inh,MITF inhib,YB-1 expression,PD-1 reversal
Cc1noc(C)c1S(=O)(=O)Nc1ccc2c(c1)CC(=O)N([C@@H](C)CO)C[C@H](C)[C@H](CN(C)C(=O)Nc1ccc(C(F)(F)F)cc1)O2,66*,2,0.088,.
CC(C)NC(=O)N(C)C[C@H]1Oc2c(NS(=O)(=O)c3ccc(F)cc3)cccc2C(=O)N([C@@H](C)CO)C[C@H]1C,-12,-5,0.024,0.7
COc1ccc(CN(C)C[C@@H]2Oc3c(NS(=O)(=O)c4ccc(Cl)cc4)cccc3C(=O)N([C@@H](C)CO)C[C@H]2C)cc1,10,2,0.59,.
COc1ccc(NC(=O)Nc2ccc3c(c2)C(=O)N([C@H](C)CO)C[C@H](C)[C@@H](CN(C)C(=O)Nc2ccccc2)OCCCC[C@@H](C)O3)cc1,-18,0,-0.19,-0.7
O=C(/C=C/c1ccc(Cl)cc1)Nc1cccc(Cl)c1,?,39,-0.3,-0.7
C[C@@H]1CN([C@H](C)CO)C(=O)c2cccc(NS(=O)(=O)c3ccc(F)cc3)c2O[C@H]1CN(C)C(=O)Nc1ccc(C(F)(F)F)cc1,27,-4,-0.0016,1.1
C[C@@H]1CN([C@@H](C)CO)C(=O)c2cccc(N(C)C)c2O[C@@H]1CN(C)Cc1ccc(C(=O)O)cc1,-20,-3,-0.35,2.5
O=S(=O)(c1cccc(-c2nnc(-c3ccccc3)o2)c1)N1CCCC1,-84,-73,-0.14,-0.7
COc1ccc(S(=O)(=O)Nc2cccc3c2O[C@H](CN(C)Cc2ccc(Oc4ccccc4)cc2)[C@@H](C)CN([C@H](C)CO)C3=O)cc1,-17,19,-0.24,-0.4
C=C1CCC(C2CC(=O)OC2=O)C(=O)CCC2C1CC2(C)C (centres undefined),-37,2,0.12,.
Cc1noc(C)c1NC(=O)Nc1cccc2c1O[C@H](CN(C)C)[C@@H](C)CN([C@H](C)CO)C2=O,-7,1,-0.1,.
Cc1noc(C)c1NC(=O)Nc1ccc2c(c1)C(=O)N([C@H](C)CO)C[C@@H](C)[C@@H](CN(C)S(=O)(=O)c1cn(C)cn1)O2,-29,-8,-0.031,1.1

Going on with the list.
mol,Hedgehog inh,MITF inhib,YB-1 expression,PD-1 reversal
CC(C)COC(=O)c1ccc2c(c1)C1C=CCC1C(c1ccc(Cl)cc1)N2 (centres undefined),17,3,0.16,0.7
C[C@@H]1CCCCO[C@H](CN(C)S(=O)(=O)c2ccc(F)cc2)[C@@H](C)CN([C@H](C)CO)C(=O)c2cc(NC(=O)Nc3ccc(F)cc3)ccc2O1,-21,14,-0.13,-1.8
CCOC(=O)c1c(NC(=O)CN2C(=O)c3ccccc3C2=O)sc2c1CCC(C)C2 (centres undefined),.,8,.,-1.2
O=C(OC[C@H]1O[C@@H](Oc2ccc(O)cc2COC(=O)C2(O)C=CCCC2=O)[C@H](O)[C@@H](O)[C@@H]1O)c1ccccc1 (some centres undefined),1,.,0.76,.
Cc1cccc(-c2nc3cc(NC(=O)COc4ccccc4[N+](=O)[O-])ccc3o2)c1,.,-46,.,0.1
CSC1=N/C(=C\C=C\c2cccs2)C(=O)S1,16,6,-0.19,3.0
COc1ccc(NC(=O)N(C)C[C@@H]2Oc3ccc(NC(=O)CCCCCC(=O)Nc4ccccc4N)cc3CC(=O)N([C@H](C)CO)C[C@H]2C)cc1,.,2,-0.23,4.2
COc1ccc(NC(=O)Nc2ccc3c(c2)C(=O)N([C@@H](C)CO)C[C@@H](C)[C@@H](CN(C)C(=O)Nc2ccc(C(F)(F)F)cc2)O3)cc1,8,30,0.074,-0.1
Cc1cc(O)c(Cc2c(O)cc(C)c(C=O)c2O)c(O)c1C,-8,11,-0.098,-1.6
CC1=C2CCC(C(=O)O)=CC2C(C(C)C)CC1 (centres undefined),-24,-2,0.62,-0.3
C[C@H](CO)N1C[C@H](C)[C@@H](CN(C)Cc2ccc(-c3ccccc3)cc2)Oc2ccc(NC(=O)Nc3ccc(C(F)(F)F)cc3)cc2C1=O,3,9,0.033,-1.0
O=C(COc1ccc(C(=O)Nc2ccccc2Cl)cc1)Nc1cccc(C(F)(F)F)c1,.,14,.,0.7

Carrying on.
mol,Hedgehog inh,MITF inhib,YB-1 expression,PD-1 reversal
CCC1(COC(NC(=O)c2ccc(Cl)cc2Cl)(C(F)(F)F)C(F)(F)F)COC1,13,13,-0.17,-0.8
O=C(CSc1ncn[nH]1)N(c1ccccc1)c1ccccc1,.,-10,.,-0.1
CCc1ccccc1NC(=O)CC(O)(C(=O)OC)C(F)(F)F (centres undefined),.,-1,.,2.8
C[C@H]1CN([C@@H](C)CO)C(=O)Cc2cc(NC(=O)CCN3CCOCC3)ccc2O[C@@H]1CN(C)S(=O)(=O)c1ccc(Cl)cc1,29,-6,-0.14,1.0
Cc1ccc(S(=O)(=O)N(C)C[C@@H]2Oc3ccc(N(C)C)cc3CC(=O)N([C@H](C)CO)C[C@H]2C)cc1,-20,-1,-0.17,.
Cc1noc(C)c1NC(=O)Nc1ccc2c(c1)C(=O)N([C@H](C)CO)C[C@H](C)[C@@H](CN(C)S(=O)(=O)c1ccccc1)O2,4,-2,-0.062,.
COc1cc(/C=C2/C(=N)N3C=CSC3=NC2=O)cc(OC)c1OCCOc1ccc(C)c(C)c1,11,-8,0.071,-0.2

Source: PubChem
